Screening data: PubChem BioAssay, several laboratories
Calb FLC: affects C. albicans growth with fluconazole; hit rate 0.57% among 300,000; growth inhibition, % (test concentration not listed); C. albicans CaCi-2 (fluconazole-resistant clinical isolate) + fluconazole, Alamar Blue growth, 48 h;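 active means most replicates above 75%; inconclusive means exactly half above 75%; inactive means most below 75%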;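 further: all wells also contain fluconazole at 8 µg/ml as a sub-toxic cotreatment; 0% = median of DMSO wells and 100% = median of geldanamycin control wells; wells of about 8 µL received 7.5 nL stock; the first replicate is given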
Vif A3G: HIV-1 Vif–A3G interaction blockers – biochemical, TR-FRET, GST-Vif 1-94, biotin-A3G peptide, dose response retest, primary screen (AID 1117319) | TR-FRET GST-Vif / biotin-A3G peptide binding; higher % means a stronger effect; test concentration not given here; strong numbers were not always called active | inhibition, %; hits with a dose series show IC50 in µM | hit rate 0.57% among 260,000;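 active means above the screen mean plus three standard deviations and confirmed in dose response; inconclusive means results disagree or hit not tested in dose response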;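 further: Vif residues 1-94 fused to GST binding biotinylated APOBEC3G peptide 110-148; 0% = full assay without inhibitor and 100% = GST in place of GST-Vif; retest series ran down from 100 µM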
LANA-H2B inh: blocks KSHV LANA binding to histone H2A/H2B. cell-free LANA-H2A/H2B peptide, fluorescence polarization. inhibition, % (concentration not given with the values). hit rate 0.6% among 320,000. AID 2629; in the data active means inhibition mostly above about 10%, no sharp cut-off; inactive means mostly below about 6.7%;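 further: stock transfer was 7.5 nL into about 10 µL; 0% = median of vehicle wells and 100% = median of positive control wells; one replicate is shown; the record names a cut of 25% in any replicate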
ALR inh: blocks human ALR sulfhydryl oxidase activity; purified ALR, DTT oxidation, H2O2 HRP-luminol luminescence; AID 485317; hit rate 3.8% among 290,000; P55789; inhibition, % (test concentration not listed);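 active means mean and each replicate at 75% or more; inconclusive means only one of the two met; inactive means neither met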;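 further: stock transfer was 7.5 nL into about 7.5 µL; 0% = neutral wells and 100% = wells with inactivated enzyme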
Target sequence (P55789 whole entry, looked up): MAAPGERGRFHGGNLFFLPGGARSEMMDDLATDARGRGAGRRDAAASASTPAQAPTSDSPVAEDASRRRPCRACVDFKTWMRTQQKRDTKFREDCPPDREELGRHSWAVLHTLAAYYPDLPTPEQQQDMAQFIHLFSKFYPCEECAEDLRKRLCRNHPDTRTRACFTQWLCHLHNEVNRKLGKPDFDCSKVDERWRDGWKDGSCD
RanGTP-Imp inh: disruptors of Ran-importin-beta complex formation – biochemical, FRET, CFP-Ran, YFP-importin-beta, homogeneous, primary screen | cell-free CFP-Ran/YFP-importin-beta FRET ratio | inhibition, % (no concentration beside the values) | hit rate 1.1% among 300,000 | AID 2216;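 active means most replicates above 15%; inconclusive means exactly half above 15%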;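 further: 0% = DMSO wells and 100% = Ran loaded with GDP instead of GTP; wells of about 40 µL received 100 nL stock; the first replicate is given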
B2AR ag: agonists of human beta-2 adrenergic receptor inducing internalization | response, % (test concentration not listed) | P07550 | AID 504454 | Am2.2-beta2AR cells, FAP receptor internalization, flow cytometry; reference of the scale not given here | hit rate 0.43% among 340,000;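 active means response above a set limit, near 3 SD of response in nonfluorescent compounds, cut at about 42% in these data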;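 further: stock transfer was 100 nL into about 11 µL; a reference agonist was the positive control; negative values mostly stem from fluorescent compounds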
Target sequence (P07550 whole entry, looked up): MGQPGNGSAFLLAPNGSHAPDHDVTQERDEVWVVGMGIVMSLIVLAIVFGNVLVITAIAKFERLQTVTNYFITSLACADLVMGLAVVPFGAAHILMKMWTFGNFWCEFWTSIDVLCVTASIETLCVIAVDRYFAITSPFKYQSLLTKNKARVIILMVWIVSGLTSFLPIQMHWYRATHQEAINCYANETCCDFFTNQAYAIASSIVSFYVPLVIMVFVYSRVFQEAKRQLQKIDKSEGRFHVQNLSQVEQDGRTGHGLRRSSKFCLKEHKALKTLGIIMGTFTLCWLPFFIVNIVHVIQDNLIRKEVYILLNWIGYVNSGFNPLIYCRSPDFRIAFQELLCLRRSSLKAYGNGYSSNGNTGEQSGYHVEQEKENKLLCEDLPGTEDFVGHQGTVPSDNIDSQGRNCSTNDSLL
HNF4A DNA FP: change in binding of human HNF4 alpha to DNA; P41235; HNF4a-FITC DNA binding, fluorescence polarization, 1 h; activity change, % at 10 µM; hit rate 0.3% among 360,000; in the data active means activity change above about 30%, passing the limit was not always enough;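 further: controls were the assay level and a saturating level of protein; the project sought stronger binding though the title names inhibitors; some compounds called inactive have numbers as strong as hits; positive values seem to mean higher polarization but the record does not say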
Target sequence (P41235 whole entry, looked up): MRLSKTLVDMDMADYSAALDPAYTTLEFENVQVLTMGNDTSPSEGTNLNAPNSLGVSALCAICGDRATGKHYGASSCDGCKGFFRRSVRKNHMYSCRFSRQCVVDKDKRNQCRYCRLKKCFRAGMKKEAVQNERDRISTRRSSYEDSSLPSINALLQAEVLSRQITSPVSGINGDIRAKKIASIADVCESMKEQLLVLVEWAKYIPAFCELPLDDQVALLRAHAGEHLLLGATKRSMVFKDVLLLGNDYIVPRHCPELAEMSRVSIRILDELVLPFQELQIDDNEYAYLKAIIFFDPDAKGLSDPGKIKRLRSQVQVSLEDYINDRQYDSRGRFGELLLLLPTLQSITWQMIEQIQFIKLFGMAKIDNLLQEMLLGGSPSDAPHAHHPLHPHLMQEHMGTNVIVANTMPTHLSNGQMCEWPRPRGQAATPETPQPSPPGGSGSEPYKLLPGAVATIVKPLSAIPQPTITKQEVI
* hit, by the source's call. Compounds as they come; any-hit rate near 6.3%.

How did COCCCNC(=O)CN(Cc1ccccc1)S(=O)(=O)c1ccccc1 do in these assays?
Calb FLC: 12.3; LANA-H2B inh: 2.4; ALR inh: 1.1; RanGTP-Imp inh: 2.0; B2AR ag: 1.2; HNF4A DNA FP: 0.6

Results for CCOC(=O)C(CCC(=O)O)(CCC(C)C)c1csc(N)n1 (stereo not given) ?
Calb FLC: -14.6; Vif A3G: 6.0%; LANA-H2B inh: 3.1; ALR inh: -27.2; RanGTP-Imp inh: 0.5; B2AR ag: 5.5; HNF4A DNA FP: 2.5

What do the screens show for `O=C(CN1C(=O)NC2NC(=O)NC21)NN=C1CCCC1` (stereo not given)?
Calb FLC: 7.1; Vif A3G: 0.7%; LANA-H2B inh: -2.2; ALR inh: 5.4; RanGTP-Imp inh: 0.8; B2AR ag: -7.7; HNF4A DNA FP: 4.4

Results for CC(=O)NC(CSc1cc(C)nc2ccc(Br)cc12)C(=O)O (stereo not given) ?
Calb FLC: inconclusive; Vif A3G: -14.9%; LANA-H2B inh: 2.8; ALR inh: 7.8; RanGTP-Imp inh: -1.7; B2AR ag: -4.8; HNF4A DNA FP: -2.9

What do the screens show for `COc1cccc(-c2ncc3ccccn23)c1`?
Calb FLC: -11.2; LANA-H2B inh: 2.4; ALR inh: -6.2; RanGTP-Imp inh: inconclusive; B2AR ag: -11.6; HNF4A DNA FP: 1.4

How did CCOC(=O)N1CCN(C(=O)c2cccc(NC(=O)c3ccco3)c2)CC1 do in these assays?
Calb FLC: -0.3; Vif A3G: -2.5%; LANA-H2B inh: -1.2; ALR inh: -1.7; RanGTP-Imp inh: 0.9; B2AR ag: -4.2; HNF4A DNA FP: 1.1

What do the screens show for `COc1ccccc1P(=O)(c1ccccc1)c1ccccc1NC(C)=O` (stereo not given)?
Calb FLC: 6.0; Vif A3G: inconclusive; LANA-H2B inh: 2.7; ALR inh: -17.5; RanGTP-Imp inh: 2.9; B2AR ag: 4.4; HNF4A DNA FP: 1.2

Results for COc1ccc(Cc2nnc(NC(=O)c3ccc(C)cc3)s2)cc1OC ?
Calb FLC: -1.7; LANA-H2B inh: -2.3; ALR inh: -11.5; RanGTP-Imp inh: -0.9; B2AR ag: 3.2; HNF4A DNA FP: -6.5

How did Cc1cccc(N=C2C(=O)Nc3c(Cl)cccc32)c1 do in these assays?
Calb FLC: 0.1; LANA-H2B inh: -0.3; ALR inh: -3.1; RanGTP-Imp inh: 0.3; B2AR ag: -6.4; HNF4A DNA FP: -0.8

What do the screens show for `COCCNc1nc(C)cc(-c2cc(C(=O)Nc3ccccc3)on2)n1`?
Calb FLC: -8.2; LANA-H2B inh: 0.8; ALR inh: -3.9; RanGTP-Imp inh: -0.3; B2AR ag: 2.2; HNF4A DNA FP: -10.8

How did O=C(O)C(Cc1ccccc1)N=C(NS(=O)(=O)c1ccccc1)c1ccccc1 (stereo not given) do in these assays?
Vif A3G: -4.6%; LANA-H2B inh: 5.1; ALR inh: -15.5; B2AR ag: 1.4; HNF4A DNA FP: 2.0

What do the screens show for `CC1CCCC(NC(=S)Nc2cccc(S(=O)(=O)N(C)C)c2)C1C` (stereo not given)?
Calb FLC: 3.9; Vif A3G: 5.5%; LANA-H2B inh: -2.0; ALR inh: -1.1; RanGTP-Imp inh: 2.0; B2AR ag: 6.7; HNF4A DNA FP: 4.0

What do the screens show for `Cc1ccc(C(=O)NC2(O)C(=O)c3ccccc3C2=O)cc1C`?
Calb FLC: 1.0; Vif A3G: 15.7%; LANA-H2B inh: 5.0; ALR inh: 34.2; RanGTP-Imp inh: 2.4; B2AR ag: 5.8; HNF4A DNA FP: -1.9

What do the screens show for `CN(C)S(=O)(=O)c1cccc(NC(=O)c2ccccc2OCc2ccc(F)cc2)c1`?
Calb FLC: -2.5; LANA-H2B inh: -1.2; RanGTP-Imp inh: 0.2; B2AR ag: -2.0; HNF4A DNA FP: -1.6

How did C=CCn1c(=O)/c(=C2/SC(C)=C(C)N2CC)s/c1=C1/C(=O)N(CC)C(=S)N1c1ccccc1 do in these assays?
Calb FLC: 5.5; Vif A3G: 4.6%; LANA-H2B inh: -0.5; ALR inh: 41.7; RanGTP-Imp inh: 10.5; B2AR ag: 11.9; HNF4A DNA FP: 7.5

Results for CCOC(=O)c1[nH]c2ccc(OC)cc2c1N=CN(C)C ?
Calb FLC: -4.2; Vif A3G: -1.2%; LANA-H2B inh: 1.5; ALR inh: 98.1*; RanGTP-Imp inh: 0.8; B2AR ag: 0.1; HNF4A DNA FP: 2.3

What do the screens show for `CCOC(=O)c1cnn(-c2ccccc2)c1-n1cccc1C(=O)C(=O)Nc1ccc(OC)cc1`?
Calb FLC: -8.0; Vif A3G: -6.7%; LANA-H2B inh: -3.7; ALR inh: -0.6; RanGTP-Imp inh: 4.1; B2AR ag: 11.1; HNF4A DNA FP: -2.5

How did C[C@H](CO)N1C[C@H](C)[C@@H](CN(C)C(=O)Nc2ccccc2)Oc2c(NS(=O)(=O)c3cn(C)cn3)cccc2C1=O do in these assays?
LANA-H2B inh: 6.1; ALR inh: -3.2; B2AR ag: 1.6; HNF4A DNA FP: 2.6

How did CC(C(=O)O)N(C(=O)c1ccccc1)c1ccc(F)cc1 (stereo not given) do in these assays?
Calb FLC: 3.8; Vif A3G: 9.2%; LANA-H2B inh: -2.0; ALR inh: -8.3; RanGTP-Imp inh: -1.0; B2AR ag: 5.6; HNF4A DNA FP: 3.6

Results for N#Cc1ccc(N2CCN(c3ccc(F)cc3)CC2)cc1 ?
Calb FLC: 9.1; Vif A3G: -4.3%; LANA-H2B inh: 3.2; RanGTP-Imp inh: -0.9; B2AR ag: -2.5; HNF4A DNA FP: -1.0

Results for CC(C)CN(C(=O)COc1ccc(-c2nnco2)cc1)C1CCS(=O)(=O)C1 (stereo not given) ?
Calb FLC: 4.6; Vif A3G: -5.5%; LANA-H2B inh: 0.1; ALR inh: -0.7; RanGTP-Imp inh: -1.8; B2AR ag: 6.2; HNF4A DNA FP: -2.2

How did COC1C(C)=C(C)C(=O)N1Cc1ccc(F)cc1 (stereo not given) do in these assays?
Calb FLC: -8.3; LANA-H2B inh: 5.0; ALR inh: -6.4; RanGTP-Imp inh: 0.7; B2AR ag: 6.5; HNF4A DNA FP: 2.0

What do the screens show for `CCn1c(C(O)c2ccc3c(c2)OCO3)nc2ccccc21` (stereo not given)?
Calb FLC: -6.5; Vif A3G: 1.3%; LANA-H2B inh: -0.3; ALR inh: -9.0; RanGTP-Imp inh: 4.8; B2AR ag: 5.5; HNF4A DNA FP: 3.7

What do the screens show for `CC(=O)Nc1c(Cl)c2c(c(Cl)c1Br)-c1ccc(Cl)cc1C2`?
Vif A3G: -158.3%; B2AR ag: -0.9; HNF4A DNA FP: 3.1

How did COc1ccc(/C=C/C(=O)Nc2ccccc2F)cc1S(=O)(=O)N1CCOCC1 do in these assays?
Vif A3G: -4.9%; LANA-H2B inh: -6.3; ALR inh: -4.5; B2AR ag: 12.1; HNF4A DNA FP: -2.0

How did COC(=O)[C@@H]1CCCN1C(=O)CCc1nnc(CCc2c[nH]c3ccccc23)o1 do in these assays?
Calb FLC: 14.0; LANA-H2B inh: 0.6; ALR inh: -2.4; RanGTP-Imp inh: -2.6; B2AR ag: -1.2; HNF4A DNA FP: 1.2

How did CNC(=S)NCCc1c[nH]c2ccc(OC)cc12 do in these assays?
Calb FLC: -1.5; Vif A3G: -3.1%; LANA-H2B inh: 0.5; ALR inh: 98.8*; RanGTP-Imp inh: -0.5; B2AR ag: 1.4; HNF4A DNA FP: 0.6

What do the screens show for `NNC(=O)c1cc2nc(-c3cccs3)cc(C(F)(F)F)n2n1`?
Calb FLC: inconclusive; Vif A3G: inconclusive; LANA-H2B inh: 0.5; ALR inh: 3.3; RanGTP-Imp inh: 26.9*; B2AR ag: -12.0; HNF4A DNA FP: 1.4

Results for Cc1cc(C(=O)N2CCN(S(=O)(=O)c3ccc(F)c(Cl)c3)CC2)c(C)o1 ?
Vif A3G: 15.7%; LANA-H2B inh: 2.2; ALR inh: 0.6; B2AR ag: 3.3; HNF4A DNA FP: -0.1

Results for Cc1ccc(-c2csc3nc(SCC(=O)Nc4ccc(Cl)c(C(=O)O)c4)[nH]c(=O)c23)cc1 ?
LANA-H2B inh: -2.5; ALR inh: 56.6; RanGTP-Imp inh: -4.0; B2AR ag: -6.3; HNF4A DNA FP: 0.5

How did Cc1csc(NC(=O)CSc2nnc(-c3cccs3)n2C)n1 do in these assays?
Calb FLC: -23.4; Vif A3G: 1.7%; LANA-H2B inh: -0.6; ALR inh: 31.8; RanGTP-Imp inh: -1.4; B2AR ag: -10.7; HNF4A DNA FP: 2.6

What do the screens show for `CCn1cc(C(=O)N2CCN(c3ccc([N+](=O)[O-])cc3)CC2)c(=O)c2ccc(C)nc21`?
Calb FLC: -4.2; Vif A3G: -11.1%; LANA-H2B inh: -2.1; ALR inh: 2.2; RanGTP-Imp inh: 4.1; B2AR ag: 2.3; HNF4A DNA FP: -0.6

How did CCS(=O)(=O)N1Cc2ccccc2CC1C(=O)Nc1cc(S(C)(=O)=O)ccc1Cl (stereo not given) do in these assays?
Calb FLC: -2.2; LANA-H2B inh: 4.0; ALR inh: -1.6; RanGTP-Imp inh: 3.2; B2AR ag: -12.8; HNF4A DNA FP: -7.3

Results for COC(C[C@H](O)CC(=O)COCc1ccccc1)OC ?
Calb FLC: -6.0; Vif A3G: -2.0%; RanGTP-Imp inh: -0.9; B2AR ag: -1.0; HNF4A DNA FP: 3.6

What do the screens show for `Cc1ccc(S(=O)(=O)NC2(C(F)(F)F)NC(=O)N(CCc3ccccc3)C2=O)cc1` (stereo not given)?
Calb FLC: -1.3; Vif A3G: -3.1%; LANA-H2B inh: 1.9; ALR inh: -2.2; RanGTP-Imp inh: -0.2; B2AR ag: -0.2; HNF4A DNA FP: -0.6

What do the screens show for `Clc1ccccc1-c1ccc(/C=N/n2cnnc2)o1`?
Calb FLC: -5.6; Vif A3G: -9.2%; LANA-H2B inh: 3.5; ALR inh: -6.3; RanGTP-Imp inh: -3.8; B2AR ag: 0.0; HNF4A DNA FP: 1.5

How did COC(=O)[C@@]12CCCN1[C@H](c1ccc(-c3ccc(C(C)=O)cc3)c(OC)c1)[C@H]1C(=O)N(C)C(=O)[C@H]12 do in these assays?
LANA-H2B inh: 6.2; B2AR ag: 0.1; HNF4A DNA FP: 1.2

What do the screens show for `CCN(CC)CCNC(=O)c1cn(CC)c2cc(N3CCN(C(=O)c4ccco4)CC3)c(F)cc2c1=O`?
Calb FLC: 1.5; Vif A3G: -1.2%; LANA-H2B inh: -3.9; ALR inh: -3.2; RanGTP-Imp inh: 0.3; B2AR ag: -4.9; HNF4A DNA FP: 3.7

Results for CN(C)CCCN(C(=O)c1ccc(S(=O)(=O)N2CCCCCC2)cc1)c1nc2ccc(F)cc2s1 ?
Calb FLC: -3.6; Vif A3G: -7.6%; LANA-H2B inh: 6.1; ALR inh: -3.8; RanGTP-Imp inh: 4.8; B2AR ag: 18.1; HNF4A DNA FP: 0.0

Results for Cc1ccc(NC(=O)CC(C)S(=O)(=O)c2ccc3c(c2)NC(=O)CO3)cc1C (stereo not given) ?
Calb FLC: 1.5; LANA-H2B inh: 2.2; ALR inh: 3.2; RanGTP-Imp inh: 2.9; B2AR ag: -3.4; HNF4A DNA FP: 3.3

Results for Fc1ccccc1C1c2[nH]c3ccccc3c2CCN1Cc1cccn1-c1ncccn1 (stereo not given) ?
Calb FLC: -12.4; Vif A3G: 9.9%; LANA-H2B inh: 1.2; ALR inh: -6.1; RanGTP-Imp inh: 2.9; B2AR ag: 8.1; HNF4A DNA FP: -0.2
